# High-throughput results from PubChem.
# Sa RN4220 lethal: S. aureus RN4220 growth inhibition; AID 1259311; inhibition, % (concentration not given with the values); OD600, 16 h; 330,000 compounds, 0.33% hits;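 active = z-score of -3 or lower and OD600 up to 0.18 on both plates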;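 note: plate controls were untreated cells for no effect and reference antibiotic for full effect; stock transfer was 100 nL into about 80 µL; one replicate is shown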
# Bead autofluor: counter-screen for toxin protease inhibitors: compound fluorescence; compound autofluorescence counterscreen, microsphere flow cytometry; stronger effect = higher value; fluorescence intensity (no concentration beside the values); 360,000 compounds, 3.1% hits; AID 624483;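 active = at least 3 SD above the mean of all compounds, about 16000 in these data; inconclusive = too few beads counted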;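 note: 100 nL of 1 mM stock went into each well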
# Mtb hypoxia inh: reduces hypoxia-regulated biosensor signal in M. tuberculosis. M. tuberculosis hypoxia-regulated fluorescent reporter, fluorescence. fluorescence inhibition, % (no concentration beside the values). 300,000 compounds, 0.1% hits;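 active = 35 to 45% if threefold the growth effect, above 45% if 1.5-fold the growth effect; inactive = the rest, general growth blockers included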;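 note: wells of about 50 µL received 100 nL stock; 0% = vehicle wells and 100% = reference inhibitor wells; whole bacteria with a GFP reporter of the hypoxia response; strong numbers were not always called active; many hits fall short of the cut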
# PrP 5UTR inh: suppresses PrP 5' UTR mRNA reporter expression | cell-based PrP 5' UTR mRNA reporter, plate reader | inhibition, % (test concentration not listed) | 340,000 compounds, 0.35% hits;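 active = every replicate at 50% or more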;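 note: 0 = median of the neutral control wells; tested in H4 reporter cells; numbers are from one replicate; inactives centre near -14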
# Sa ugtP lethal: kills S. aureus RN4220 lacking UgtP | S. aureus RN4220 ugtP deletion, OD600 growth, 16 h; some inactives read as strong as hits | growth inhibition, % (no concentration beside the values) | 330,000 compounds, 0.54% hits;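 active = z-score under -3 and OD600 up to 0.15 on both plates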;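 note: plate controls were untreated wells for no effect and antibiotic for full effect; wells of about 80 µL received 100 nL stock; the first replicate is given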
# BJeLR viability: BJeLR cell viability loss | BJeLR (HRASV12) viability, CellTiter-Glo ATP luminescence, 48 h; reference of the scale not given here | inhibition, % (no concentration beside the values) | 300,000 compounds, 0.17% hits | AID 1554;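 active = replicate mean above 50%; inconclusive = above 50% but judged a plate artefact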;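 note: 50 nL library stock added to about 25 µL; numbers are from one replicate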
# Mtb hypoxia inh growth: recorded beside Mtb hypoxia inh, whose call it bears; growth inhibition, %; measured here: M. tuberculosis growth (absorbance);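 0% = vehicle and 100% = reference antibiotic; read after six days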
# * marks the source's active call; other numbers are inactive results; ? = inconclusive; . = no result given.
# The line under a structure holds: Sa ugtP lethal	PrP 5UTR inh	BJeLR viability	Sa RN4220 lethal	Mtb hypoxia inh	Bead autofluor	Mtb hypoxia inh growth
1) O=c1oc2ccccc2c(Nc2ccc3ccccc3c2)c1[N+](=O)[O-]
    -11	-23	0	8.9	6	8865	9
2) CCOc1ccc(/C=N/NC(=O)C(O)c2ccccc2)c(O)c1 (centres undefined)
    .	5	17	.	.	3354	.
3) Cc1cc(C)n2c(SCC(=O)Nc3ccc(F)cc3F)nnc2n1
    11	-17	3	5.6	2	3805	12
4) Fc1ccc(CSc2nnc(-c3ccccn3)o2)cc1
    6	-43	-1	4.5	39*	3337	22*
5) S=C(Nc1ccc(Cl)c(Cl)c1)N1CCN(c2ccccn2)CC1
    12	-8	-4	2.6	9	3817	11
6) O=c1[nH]c(SCc2c(Cl)cccc2Cl)nc2ccccc12
    -2	-16	7	2.8	19	4301	5
7) CC(CN(C(N)=O)c1ccccc1O)C(=O)O (centres undefined)
    -3	-7	5	-0.3	.	3601	.
8) Cc1ccc(C(=O)C2=C(O)C(=O)N(Cc3cccnc3)C2c2ccc(Br)cc2)o1 (centres undefined)
    .	-8	2	.	.	5592	.
9) C#CCNC(=O)[C@H](Cc1ccc(C(=O)c2ccccc2)cc1)NC(=O)OC(C)(C)C
    .	-8	-4	.	.	2896	.
10) NC(=O)Cn1cnc2c(nnn2-c2ccc(F)cc2)c1=O
    -1	0	-2	-0.1	10	3083	1
11) COc1ccc(NC(=O)CN(C)C(=O)Cc2ccsc2)cc1
    10	-19	-2	0.0	11	4710	0
12) CCCCc1nnc(NC(=O)C=C(C)C)s1
    0	-14	-5	-0.7	5	9904	3
13) Cc1cc(C)nc(SCC(=O)N/N=C/c2cccc([N+](=O)[O-])c2)n1
    .	-10	-9	.	.	9117	.
14) N#CCCNN=C(Cc1nc2ccccc2[nH]1)c1cccc(Cl)c1
    -6	.	.	9.5	-7	.	10
15) Oc1ccc2[nH]ccc2c1
    17	0	0	19	-10	2656	-4
16) CCOC(=O)CCn1nc(-c2ccc(Cl)cc2)cc1N
    10	-35	-2	-2.4	5	3678	0
17) Cc1ccc2[nH]c(C(=O)Nc3ccc(F)cc3)cc2c1
    8	-52	-9	3.0	-4	3971	0
18) COc1ccc2c(c1OC)C(=O)N(c1ccc(O)cc1)C2
    6	-24	8	-1.2	-7	3628	2
19) CCCCCOc1ccc(C(=O)NCCC(=O)NCCCC(=O)OCC)cc1
    1	-22	0	6.2	7	4213	4
20) Cc1ccc(OS(=O)(=O)c2ccccc2)c(C=N/N=C2\NC(=O)C(C)S2)c1 (centres undefined)
    -7	.	.	13	11	.	1
21) COCCn1c(SCC(=O)Nc2ccc(Cl)c(S(=O)(=O)N(C)C)c2)nc2ccccc21
    1	0	-8	2.6	4	4302	4
22) CC(C)(C)OC(=O)N[C@@H](COCc1ccccc1)C(=O)N[C@@H](CO)[C@H](O)[C@@H]1C[C@@H]1C(=O)NC1CCCCC1
    .	-4	1	.	.	4026	.
23) Cc1ccc2cc3cc(C(=O)N4CCN(C(=O)c5ccco5)CC4)sc3nc2c1
    -5	-16	-3	-0.1	.	4055	.
24) CC(=O)Nc1ccc(N2CCN(Cc3ccccc3F)CC2)cc1
    5	4	5	3.8	2	4193	-5
25) N#Cc1ccc(C(=O)OCc2cccc(S(=O)(=O)N3CCOCC3)c2)cc1
    -2	-8	.	3.4	-1	?	0
26) c1ccc(C2CC2)c(OCC2=NCCN2)c1
    3	-18	.	1.1	4	4372	0
27) CCN1CC2C3C(=O)N(Cc4ccccc4)C(=O)C3[C@](C)(C1=O)N2C(=O)c1ccc(F)cc1 (some centres undefined)
    -1	.	.	3.5	1	.	6
28) C/C(=N\NC(=O)c1cccc(S(=O)(=O)N2CCCC2)c1)c1ccc(F)cc1
    .	10	-3	.	.	6029	.
29) O=C/C=C/c1coc2ccc3ccccc3c2c1=O
    5	.	-26	-0.5	10	.	2
30) COc1ccc(N=C2S/C(=C\c3cc(C)n(C)c3C)C(=O)N2CC(C)C)cc1
    44	-1	-12	-12	-1	2645	0

# Screen by screen, as entered above.
# Entries 1–7 in Sa ugtP lethal: -11, ., 11, 6, 12, -2, -3
# Entries 1–7 in PrP 5UTR inh: -23, 5, -17, -43, -8, -16, -7

# Records 29 to 30, reprinted for reference:
# The line under a structure holds: Sa ugtP lethal	PrP 5UTR inh	BJeLR viability	Sa RN4220 lethal	Mtb hypoxia inh	Bead autofluor	Mtb hypoxia inh growth
29) O=C/C=C/c1coc2ccc3ccccc3c2c1=O
    5	.	-26	-0.5	10	.	2
30) COc1ccc(N=C2S/C(=C\c3cc(C)n(C)c3C)C(=O)N2CC(C)C)cc1
    44	-1	-12	-12	-1	2645	0

# (listing goes on)
# The line under a structure holds: Sa ugtP lethal	PrP 5UTR inh	BJeLR viability	Sa RN4220 lethal	Mtb hypoxia inh	Bead autofluor	Mtb hypoxia inh growth
31) Cc1ccc(-c2nc3c(c(=O)c4ccccc4n3C)c(=O)n2-c2ccc(F)cc2)cc1
    -7	-14	0	-2.6	-2	5145	11
32) COc1ccccc1C1CCN(C(=O)c2cccc([N+](=O)[O-])c2)CC1
    5	-28	2	1.2	7	4474	3
33) CCOc1ccc(C2C=C(c3ccccc3)Nc3nnnn32)cc1 (centres undefined)
    2	-70	2	6.8	24	8531	22
34) O=C(NCc1ccccc1)c1cc(-c2cccc(O)c2)on1
    0	-10	-5	1.3	0	4090	3
35) CCCC(c1nnnn1CCOC)N1CCN(Cc2ccccc2)CC1 (centres undefined)
    8	4	8	9.8	.	3217	.
36) Cc1cc(-n2c(C)cc(C(=S)N3CCOCC3)c2C)ccc1Br
    -4	-29	-24	1.4	-6	2557	8
37) O=C(NCC1COc2ccccc2O1)C1C2C=CC3(CN(Cc4ccccc4Cl)C(=O)C13)O2 (centres undefined)
    -4	-10	-25	3.8	4	9480	10
38) Cc1cc(C)n(-c2nc3ccccc3nc2N2CCN(S(=O)(=O)c3cccc(C#N)c3)CC2)n1
    20	-23	-4	35	6	2906	7
39) O=C(COc1ccc(Br)cc1)N1CCN(Cc2c[nH]c3ccccc23)CC1
    -17	-10	13	-23	3	2367	14
40) CSCCC(C(=O)OC1CCOC1=O)N1C(=O)c2ccccc2C1=O (centres undefined)
    8	-25	3	4.6	12	4447	9
41) O=C(NC(C(=O)N/N=C/c1ccncc1)c1n[nH]c(=O)c2ccccc12)c1ccccc1 (centres undefined)
    .	6	-25	.	.	4485	.
42) CCCCn1c(N)c(N(CCOC)C(=O)COC(=O)C(C)(C)Oc2ccc(Cl)cc2)c(=O)[nH]c1=O
    10	-19	3	-8.6	9	5560	10
43) COc1ccc(CNS(=O)(=O)c2ccc(-c3ccc(=O)[nH]n3)o2)cc1
    -2	4	0	3.4	-7	5675	0
44) CC1C(=O)CCN(C(C)(C)C)C1C (centres undefined)
    -2	-32	2	-2.4	0	2513	7
45) CN(C)S(=O)(=O)c1cccc(C(=O)Nc2ccccc2C(=O)NC2CC2)c1
    9	-22	.	5.0	2	3166	6
46) CCOc1ccccc1OCCCC(=O)NC1=NCCS1
    16	-5	-3	3.5	4	3257	5
47) CC(=O)Nc1ccc(S(=O)(=O)NCC(=O)OCC(=O)N2CCN(c3ccccc3)CC2)cc1
    1	-49	-3	1.9	18	1951	-1
48) O=C(COc1ccc(Cl)cc1Cl)NN=Cc1ccccn1
    -1	.	.	-0.1	2	.	4
49) CC(=O)Nc1nc(-c2cccc3ccccc23)cs1
    .	-13	1	.	.	3545	.
50) CC(=O)N(C)c1ccc(NC(=O)c2ccco2)cc1
    9	-54	-12	4.7	.	3224	.
51) O=C(/C=C/c1ccco1)Nc1ccc2c(c1)OCCO2
    3	-53	.	-0.7	9	3926	5
52) CCCOc1ccc(C(CC)=NNC(=O)C2(C)CC2(Br)Br)cc1 (centres undefined)
    2	.	.	-3.0	8	.	1
53) CS(=O)(=O)NCCC1=CCCCC1
    2	-11	-7	0.1	7	7944	3
54) CC(C)(C)c1ccc(OCC(O)CN2CCc3ccccc3C2)cc1 (centres undefined)
    53	.	4	-4.0	-2	3076	3
55) COc1ccc(S(=O)(=O)NCC2CCC(C(=O)NCC(OC)OC)CC2)cc1 (centres undefined)
    2	-16	-6	6.7	7	4372	-2
56) Cc1cc(C)cc(C(=O)NCC(=O)NCc2ccc(S(N)(=O)=O)cc2)c1
    12	-4	-1	3.5	-3	3696	8
57) O=S(=O)(NCCc1ccccc1)c1ccc(F)cc1Br
    -7	53*	.	0.8	11	3883	3
58) COc1ccc(CCN(C)C(=S)Nc2cccc(C)c2)cc1OC
    0	-30	2	-1.5	-11	4945	-12
59) O=C(Cn1nnc(-c2ccccc2)n1)N=Nc1c(O)[nH]c2ccccc12
    5	-19	1	0.3	0	3045	-8
60) CCOC(=O)N1CCC(NC(=O)c2cccn3c(=O)c4cc(Br)ccc4nc23)CC1
    -2	-7	-1	2.5	1	18434*	-6
61) O=C(Nc1sccc1C(=O)NCc1ccco1)c1cccnc1
    -4	-11	-8	4.3	4	16659*	5
62) O=C1OC(N2CCN(Cc3ccccc3)CC2)c2ccccc21 (centres undefined)
    1	-6	-1	29	0	?	3
63) Cc1cc(C)n(-c2ccc(C(=O)Nc3ccccn3)cc2)n1
    4	-89	1	0.3	-3	15948	5
64) Cc1cc(C)nc(NC(N)=NC2CCCCC2)n1
    7	-11	4	3.4	5	2100	10
65) O=C1c2cnc3nc(SCc4ccccc4)nn3c2CC2c3ccccc3CCN12 (centres undefined)
    -14	-19	-2	-1.0	-4	22144*	-14
66) Cn1c(Cn2cnc(Cl)c2Cl)nc2ccccc21
    -5	-2	0	-17	6	3219	-3
67) Cc1nn(C)c(C)c1S(=O)(=O)N1CCC(C(=O)NC2CCCCC2)CC1
    -1	-10	2	-4.9	.	3814	.
68) CCOC(=O)C1CCCN(C(=O)CN2C(=O)c3ccccc3C2=O)C1 (centres undefined)
    -7	-15	0	-0.8	3	20127*	7
69) Cn1c(-c2cnn(-c3ccccc3)c2N)n[nH]c1=S
    2	-10	-21	3.0	7	3118	1
70) CCc1c(C)nc2c(Br)cccc2c1SCCC#N
    -12	-5	6	-3.0	-5	2237	11
71) O=C(COC(=O)/C=C/c1ccc(F)cc1)NC1CCS(=O)(=O)C1 (centres undefined)
    9	-14	.	2.8	2	6742	7
72) COC(=O)C1(C)NC(c2ccc(O)cc2)C2C(=O)N(c3ccccc3)C(=O)C21 (centres undefined)
    9	0	-2	3.0	-6	.	-2
73) O=[N+]([O-])c1ccc(S(=O)(=O)Nc2ccncc2)cc1
    4	-18	1	2.7	4	3495	3
74) COc1ccc(-n2nc3c(c2NC(=O)c2ccccc2S(=O)(=O)C(F)F)CS(=O)(=O)C3)cc1
    3	-26	8	-0.4	7	5469	1
75) O=C(COc1ccccc1)Nc1nc(-c2ccncc2)cs1
    13	-3	7	3.3	0	4719	-7
76) Cc1nc2ccc(Br)cn2c1C(=O)N/N=C\c1ccccc1[N+](=O)[O-]
    .	-20	-4	.	.	3434	.
77) CC(=O)NC(c1cccs1)c1cc([N+](=O)[O-])c2cccnc2c1O (centres undefined)
    39	-23	20	53	16	2590	11
78) O=NN(CCc1ccncc1)c1ccc(OCc2ccccc2)cc1
    7	-27	20	19	7	4382	2
79) O=C1c2ccccc2-c2c1nc1c([n+]2[O-])CCCC1
    2	-21	-1	17	7	2932	11
80) Cc1c(C#N)c(NC(=O)c2cccc(Cl)c2)n(Cc2ccccc2)c1C
    -15	-25	-6	-4.9	.	2430	.

# More records
# The line under a structure holds: Sa ugtP lethal	PrP 5UTR inh	BJeLR viability	Sa RN4220 lethal	Mtb hypoxia inh	Bead autofluor	Mtb hypoxia inh growth
81) CN(CC(=O)Nc1ccccc1C(=O)Nc1ccccc1)C1CCCCC1
    6	-8	.	6.2	3	4532	2
82) Cc1sc2ncnc(NCC(C)(C)N3CCOCC3)c2c1C
    -2	13	4	1.8	.	2026	.
83) C=C1N(C)c2cc([N+](=O)[O-])c(N)cc2C1(C)C
    1	-25	-7	0.9	-3	2873	5
84) CC(C)CCn1c(N2CCOCC2)nc2c1c(=O)n(CC(N)=O)c(=O)n2C
    6	-20	-6	0.1	.	2715	.
85) Cc1cc(C)nc(Sc2nc(Cl)nc(N(c3ccccc3)c3ccccc3)n2)n1
    .	-22	-12	.	.	4396	.
86) C=CCOC(=O)C1=C[C@@H](c2csc3ccccc23)[C@H](CCCO)[C@@H](OCC)O1
    .	-9	1	.	.	3083	.
87) COc1ccc(/C=N/N2C(=O)C3C4C=CC(CC4)C3C2=O)c(OC)c1 (centres undefined)
    .	-7	3	.	.	2034	.

# Rows were taken by chance; 4% or so of the library scored in one or more.
